# Sa ugtP lethal: growth inhibition of ugtP-null S. aureus, primary screen, RN4220 ugtP deletion, OD600. 16 h; some inactives read as strong as hits. growth inhibition, % (test concentration not listed). actives 0.54% (n = 330,000). AID 1259309, 2017;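 active = z-score under -3 and OD600 up to 0.15 on both plates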;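 also: plate controls were untreated wells for no effect and antibiotic for full effect; wells of about 80 µL received 100 nL stock; the first replicate is given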
# BJeLR viability: MLPCN primary cell-based screen for lethality selective to Ras in HRASV12 cells; inhibition, % (no concentration beside the values); actives 0.17% (n = 300,000); BJeLR (HRASV12) viability, CellTiter-Glo ATP luminescence, 48 h; reference of the scale not given here; AID 1554, 2009;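 active = replicate mean above 50%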;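 also: 50 nL library stock added to about 25 µL; numbers are from one replicate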
# PrP UTR inh: inhibition of PrP 5' UTR reporter expression | cell-based PrP 5' UTR mRNA reporter, plate reader | inhibition, % (no concentration beside the values) | AID 488862, 2010 | actives 0.35% (n = 340,000);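 active = every replicate at 50% or more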;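 also: 0 = median of the neutral control wells; tested in H4 reporter cells; numbers are from one replicate; inactives centre near -14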
# Mtb hypoxia rep: PubChem AID 1159583; M. tuberculosis hypoxia-regulated fluorescent reporter, fluorescence; fluorescence inhibition, % (concentration not given with the values); actives 0.1% (n = 300,000);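 active = 35 to 45% if threefold the growth effect, above 45% if 1.5-fold the growth effect; inactive = the rest, general growth blockers included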;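 also: wells of about 50 µL received 100 nL stock; 0% = vehicle wells and 100% = reference inhibitor wells; whole bacteria with a GFP reporter of the hypoxia response; strong numbers were not always called active; many hits fall short of the cut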
# Bead autofluor: flagged as autofluorescent in microsphere protease counterscreen. compound autofluorescence counterscreen, microsphere flow cytometry; hits give high values. fluorescence intensity (test concentration not listed). actives 3.1% (n = 360,000). AID 624483;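 active = at least 3 SD above the mean of all compounds, about 16000 in these data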;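 also: 100 nL of 1 mM stock went into each well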
# RN4220 kill: growth inhibition of S. aureus RN4220, primary screen, OD600; 16 h; inhibition, % (no concentration beside the values); actives 0.33% (n = 330,000); AID 1259311, 2017;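 active = z-score of -3 or lower and OD600 up to 0.18 on both plates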;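 also: plate controls were untreated cells for no effect and reference antibiotic for full effect; stock transfer was 100 nL into about 80 µL; one replicate is shown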
# Mtb hypoxia rep growth: second read-out of Mtb hypoxia rep, no call of its own (marks repeat the call); growth inhibition, %; measured here: M. tuberculosis growth (absorbance);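 0% = vehicle and 100% = reference antibiotic; read after six days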
# The depositor's hits bear a star; . = no result given; & = joins results of further samples. An unsorted share of the library; 3.9% or so of the library scored in one or more.
no.	canonical_smiles	Sa ugtP lethal	BJeLR viability	PrP UTR inh	Mtb hypoxia rep	Mtb hypoxia rep growth	Bead autofluor	RN4220 kill
1	CCCCOC(=O)C1[C@H]2C(=O)N(CCc3ccccc3)C[C@]23C=C[C@H]1O3 (stereo partly specified)	5	-13	-10	5	-4	8966	-0.3
2	O=C(O)C1C2C=CC(O2)C1C(=O)NCCC1=CCCCC1 (stereo unspecified)	3	5	-2	2	10	4752	2.3
3	O=C(CCC1CCN(C(=O)c2cccc(Cl)c2F)CC1)Nc1ccccc1	2	-7	-70	10	-4	6307	6.2
4	CSC1=N/C(=C/c2cccnc2)C(=O)N1Cc1ccc(Cl)cc1	-3	-4	-35	3	2	5435	2.3
5	CCSc1nc2ccccc2[nH]1	13&6	-5&0	5&-13	4&10	-5&-1	8195&7412	1.8&1.9
6	NS(=O)(=O)c1ccc(NC(=O)COC(=O)C2CC2)cc1	0	.	-14	20	14	3558	-0.5
7	CCCCNC(=O)C(=O)NCCCn1ccnc1	-8	5	-24	-4	8	4293	0.8
8	C=CCn1c(SCC(=O)Nc2ncc(Cc3ccc(Br)cc3)s2)nnc1-c1ccncc1	-6	0	-2	1	8	8356	0.1
9	Nc1ccn(Cc2cccc(F)c2)n1	9	-8	-77	18	6	6926	5.9
10	CCOC(=O)c1ccc(CSc2n[nH]c(C)n2)o1	-1	-6	-1	-1	2	4260	-0.5
11	O=C(Nc1ccc(Cl)c(C(F)(F)F)c1)C1CC=CC2CCN(Cc3ccccc3)C(=O)C21 (stereo unspecified)	8	.	.	6	1	.	1.6
12	Cc1n[nH]c(C)c1S(=O)(=O)N1CCC(C(=O)Nc2cccc(F)c2)CC1	9	1	28	7	3	4319	2.8
13	O=C(Nc1ccc(-c2nc3ccccc3o2)cc1)C1CCCO1 (stereo unspecified)	-15	0	-111	15	9	19183*	6.9
14	COc1ccc(C2CC(Cn3cc(C#N)c(=O)n(C)c3=O)ON2C)cc1 (stereo unspecified)	7	0	-11	3	-4	3802	4.2
15	O=C(Nc1nnc(-c2cc(Cl)ccc2Cl)o1)C1=COCCO1	-1	-6	-5	1	-4	5268	4.6
16	Cc1cccc(NC(=O)CCS(=O)(=O)c2ccccc2)n1	5	7	-21	3	9	3883	3.3
17	COc1ccc(CCNC(=O)CSc2nnc(Cn3c(=O)sc4ccccc43)n2C)cc1OC	1	.	-20	10	1	24341*	3.5
18	CCCCC(=O)NC(c1cccc([N+](=O)[O-])c1)c1ccc2cccnc2c1O (stereo unspecified)	1	.	29	14	5	3045	16
19	Cc1ccc2cc(C3C(C#N)=C(N)Oc4c3ccc3cccnc43)c(=O)[nH]c2c1 (stereo unspecified)	10	3	-4	2	4	7470	6.2
20	C/C(=C\C(=O)C(F)(F)F)Nc1ccc(C(F)(F)F)cc1	.	10	-19	.	.	2852	.
21	CSCCC(Nc1nc2ccccc2s1)C(=O)O (stereo unspecified)	1	7	-33	4	6	4141	9.1
22	CC1CCCC(N2CCN(S(=O)(=O)c3ccccc3)CC2)C1 (stereo unspecified)	15	-2	-18	7	9	3675	1.5
23	Cc1ccccc1Nc1c(N)c(=O)oc2ccccc12	12	-3	-3	10	6	4019	6.6
24	Cc1ccc(O)c(C(=O)c2cnc3c(c2)CN(CCC(C)C)C(=O)N3)c1	-10	1	-14	-96	-21	8641	0.3
25	Cc1cc(C)nc(NS(=O)(=O)c2ccc(-n3cccc3)cc2)n1	-4	-3	-20	15	3	10013	8.1

# The final five entries of the section above lead into the next:
no.	canonical_smiles	Sa ugtP lethal	BJeLR viability	PrP UTR inh	Mtb hypoxia rep	Mtb hypoxia rep growth	Bead autofluor	RN4220 kill
21	CSCCC(Nc1nc2ccccc2s1)C(=O)O (stereo unspecified)	1	7	-33	4	6	4141	9.1
22	CC1CCCC(N2CCN(S(=O)(=O)c3ccccc3)CC2)C1 (stereo unspecified)	15	-2	-18	7	9	3675	1.5
23	Cc1ccccc1Nc1c(N)c(=O)oc2ccccc12	12	-3	-3	10	6	4019	6.6
24	Cc1ccc(O)c(C(=O)c2cnc3c(c2)CN(CCC(C)C)C(=O)N3)c1	-10	1	-14	-96	-21	8641	0.3
25	Cc1cc(C)nc(NS(=O)(=O)c2ccc(-n3cccc3)cc2)n1	-4	-3	-20	15	3	10013	8.1
26	Cc1cccc2c1N(CCCOc1ccccc1)C(=O)C2=O	2	-5	-17	7	6	2555	39
27	Cc1ccc(Cl)cc1NS(=O)(=O)c1ccccc1	-8	.	0	18	9	3867	6.6
28	COc1cccc2sc(N3CCN(c4nc5ccccc5s4)CC3)nc12	-11	-4	-36	-4	10	4140	1.8
29	COCCn1c(C)cc(C2=NNC(=NC(C)(C)C)SC2)c1C	2	-3	-19	10	5	3118	7.0
30	Cc1sc2ncnc(N3CCC(C(=O)Nc4nc(-c5cccs5)cs4)CC3)c2c1C	.	12	14	.	.	4476	.
31	O=C(CCC1COc2ccccc2O1)Nc1ccc(Cl)cn1 (stereo unspecified)	4	.	-8	.	.	4116	-0.6
32	O=C(COC(=O)c1cnccn1)c1cccc([N+](=O)[O-])c1	5	-12	-2	-11	-5	5667	1.4
33	COc1ccc(S(=O)(=O)c2nnn(-c3cccc(OC)c3)c2N)cc1	1	-11	-19	4	-5	5361	4.1
34	CCCCCc1ccc(-c2ccc(/C=C/C(N)=O)cc2)nc1	2	3	4	13	7	2044	7.1
35	Cc1nn(-c2ccccc2)c(Cl)c1C=NN1CCN(c2ccccn2)CC1	14	.	.	5	3	.	9.1
36	O=C1NC(=S)NC(=O)C1=Cc1ccc(OCC(=O)N2CCCC2)cc1	14	-1	-15	-1	-2	4668	5.0
37	COc1ccc2oc(=O)c(C(=O)NCc3ccccc3)cc2c1	13	-5	-17	0	4	3884	7.0
38	CCc1ccc(C=NNC(=O)c2cc(-c3ccncc3)nc3ccccc23)s1	3	.	.	16	11	.	5.6
39	CCCCN1CCC2C=CCC(C(=O)N3CCN(c4ccccc4)CC3)C2C1=O (stereo unspecified)	-1	.	.	21	11	.	3.9
40	CCn1c(=O)c(C(=O)NCc2cccnc2)c(O)c2ccccc21	-2	3	-4	8	6	10042	3.6
41	CCC(=O)Nc1ccc(NC(=O)c2c(C)nc3ccccn23)cc1	9	-10	-22	5	6	9021	4.1
42	CC(Oc1ccc2c3c(c(=O)oc2c1)CCCC3)C(=O)NCC1CCC(C(=O)O)CC1 (stereo unspecified)	10	3	-18	13	4	4806	4.9
43	Cc1cc(=O)[nH]c(SCc2nc3ccccc3n2Cc2ccccc2)n1	-9	-4	-7	2	5	15596	1.1
44	O=C(COC(=O)Cc1ccccc1F)NC(=O)NC1CCCC1	8	.	-17	12	9	5207	6.4
45	CC(=O)NC(c1ccc(Cl)cc1)c1ccc2cccnc2c1O (stereo unspecified)	-2	.	28	13	0	2899	13
46	O=C1Nc2ccc([N+](=O)[O-])cc2OC1CCN1CCN(c2ccccc2)CC1 (stereo unspecified)	6	-3	-19	7	9	4222	9.7
47	CCOC(=O)c1nc(NCCc2ccccc2)sc1C	7	1	-55	11	10	6320	9.0
48	CCc1ccc(NC(=O)CS(=O)CC(=O)Nc2ccc(N3CCOCC3)cc2)cc1 (stereo unspecified)	11	0	-20	0	4	5429	3.4
49	CC(C)=CC1C=C(C)C(C)C2C(=O)NNC(=O)C12 (stereo unspecified)	-2	2	-18	3	6	5540	-0.4
50	COc1ccc2c(Cl)c(-c3nnc(SCC(=O)c4ccccc4)n3C)sc2c1	-4	9	-14	.	.	4206	3.6
51	OCCC1CN(C2CCN(c3ccccc3F)CC2)CCN1Cc1ccccc1 (stereo unspecified)	8	14	-20	7	10	3711	1.7
52	CCCS(=O)(=O)N1CCN(c2ccccn2)CC1	-1	2	-16	8	4	5771	0.0
53	CC(=NNC(=O)c1ccc(Cl)cc1)c1cccc(NC(=O)c2cccnc2)c1	11	.	.	3	0	.	3.2
54	O=C(c1ccco1)N1CCN(C(=O)c2cc(-c3ccccn3)nc3ccccc23)CC1	6	-8	-11	.	.	3519	3.7
55	CCOC(=O)N1CCN(C(=O)CSc2ccc(C(=O)OC)cc2[N+](=O)[O-])CC1	2	-13	-24	9	2	3926	0.9
56	CCO[C@@H]1OC(C(=O)O)=C[C@H](c2ccc(Br)cc2)[C@H]1CCCO	.	-5	-5	.	.	3751	.
57	Cc1ccnc(NC(=O)CC(c2ccccc2)c2ccccc2)n1	6	-15	-19	12	9	4251	0.4
58	COc1ccccc1C(=O)C1CCCN(C(=O)CN2CCCCC2=O)C1 (stereo unspecified)	3	-7	-31	10	5	2613	0.4
59	COc1ccc(C(C#N)N2N=C(C)CC2c2ccccc2)cc1OC (stereo unspecified)	.	-11	-16	.	.	3529	.
60	O=C(Nc1ccc(-c2nc3ccc(NC(=O)c4cccs4)cc3[nH]2)cc1)c1cccs1	-2	19	12	-3	-5	11082	-0.4
61	COc1ccc(C(=O)NN=Cc2ccccn2)cc1OC	2	.	.	6	5	.	2.5
62	CCCCNC(=O)c1ccccc1NS(=O)(=O)c1ccc2c(c1)OCCO2	4	-3	-12	2	5	16052	5.6
63	O=C(Nc1cccnc1)c1cc(-c2ccc(Br)cc2)nc2ccccc12	-2	-16	-19	7	-2	3818	-12
64	CN(C)CCCN(C(=O)c1ccc(S(=O)(=O)N2CCCC2)cc1)c1nc2c(F)cc(F)cc2s1	2	14	-6	13	6	4767	2.9
65	CCc1n[nH]c(=S)n1/N=C/c1ccccc1OCc1ccc(Cl)cc1	.	-2	-55	.	.	2346	.
66	Cc1ccc(Sc2nc3ccc(C)cn3c(=O)c2/C=N/O)cc1	.	-5	-37	.	.	4643	.
67	CS(=O)(=O)N1CC(C(=O)NC2CC2)Oc2ccc(Cl)cc21 (stereo unspecified)	-6	3	-14	8	10	9121	-0.9
68	COc1cc(NC(=S)N2CCN(S(=O)(=O)c3ccc(F)cc3)CC2)cc(OC)c1	1	1	2	-1	10	5983	-0.9
69	Cc1cc(=O)[nH]c(SCc2cn3ccccc3n2)n1	9	0	-4	7	8	3483	2.3
70	CCc1ccc(C2=NN(C(=O)OC)C(O)(C(F)(F)F)C2)cc1 (stereo unspecified)	4	12	-91	3	3	7911	4.6
71	O=C(COC(=O)Cn1cnc2ccccc2c1=O)Nc1ccccc1Sc1ccc(Cl)cc1	-7	5	-1	7	-2	9936	6.0
72	CS(=O)(=O)N1CCN(C(=O)c2ccc(Cl)s2)CC1	7	-11	-35	3	11	4306	4.6
73	CCSc1nsc(NC(=O)Nc2cccc(F)c2)n1	.	15	-34	.	.	3861	.
74	COc1cc2c(C(=O)Nc3ccccc3F)cn(C)c(=O)c2cc1OC	2	-3	-6	-3	4	3691	4.7
75	Cc1ccc2c(c1)n([O-])c1c([n+]2=O)CCCC1	11	0	-8	.	.	4993	-0.8
76	COCCN(C(=O)CSc1nnc(-c2ccccc2F)n1C)c1c(N)n(Cc2ccccc2)c(=O)[nH]c1=O	-67	-3	-29	13	5	3933	16
77	CCNCC(=O)Nc1c(C)cccc1C	-1	.	-10	4	0	4592	5.0
78	Cc1cc(Cl)c(S(=O)(=O)NCCC(=O)O)cc1OCC(N)=O	13	2	-15	.	.	2541	-0.3

# Reprinted from the results shown, 7 compounds:
no.	canonical_smiles	Sa ugtP lethal	BJeLR viability	PrP UTR inh	Mtb hypoxia rep	Mtb hypoxia rep growth	Bead autofluor	RN4220 kill
56	CCO[C@@H]1OC(C(=O)O)=C[C@H](c2ccc(Br)cc2)[C@H]1CCCO	.	-5	-5	.	.	3751	.
57	Cc1ccnc(NC(=O)CC(c2ccccc2)c2ccccc2)n1	6	-15	-19	12	9	4251	0.4
58	COc1ccccc1C(=O)C1CCCN(C(=O)CN2CCCCC2=O)C1 (stereo unspecified)	3	-7	-31	10	5	2613	0.4
59	COc1ccc(C(C#N)N2N=C(C)CC2c2ccccc2)cc1OC (stereo unspecified)	.	-11	-16	.	.	3529	.
60	O=C(Nc1ccc(-c2nc3ccc(NC(=O)c4cccs4)cc3[nH]2)cc1)c1cccs1	-2	19	12	-3	-5	11082	-0.4
61	COc1ccc(C(=O)NN=Cc2ccccn2)cc1OC	2	.	.	6	5	.	2.5
62	CCCCNC(=O)c1ccccc1NS(=O)(=O)c1ccc2c(c1)OCCO2	4	-3	-12	2	5	16052	5.6
